# Assay outcomes as filed in PubChem BioAssay.
# VCAM-1 up imaging – enhancers of VCAM-1 display on endothelial cells, imaging, high-content imaging, pooled HUVEC, TNFa stimulus (AID 457); 10,000 tested, 0.2% active; Pooled HUVEC, TNFa-induced VCAM-1 immunofluorescence imaging; hits of this screen are not shown here; calls only;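 active means a top-ranked rise in VCAM-1 staining upheld on image or statistical review; inactive means the rest, including candidates rejected on review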;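 further: compounds tested at 5 µM in the well; cells exposed to compound for 24 hours before fixing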
# FPR ligand – ligands of human FPR, also counter-screen for FPRL1 ligands. FPR-expressing cells, fluorescent ligand binding, flow cytometry. P21462. AID 440. inhibition, %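 (tested at 6.7 µM)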. 24,000 tested, 0.74% active;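 further: 0% = buffer wells and 100% = receptor blocker peptide wells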
# Target sequence (P21462 whole entry, looked up): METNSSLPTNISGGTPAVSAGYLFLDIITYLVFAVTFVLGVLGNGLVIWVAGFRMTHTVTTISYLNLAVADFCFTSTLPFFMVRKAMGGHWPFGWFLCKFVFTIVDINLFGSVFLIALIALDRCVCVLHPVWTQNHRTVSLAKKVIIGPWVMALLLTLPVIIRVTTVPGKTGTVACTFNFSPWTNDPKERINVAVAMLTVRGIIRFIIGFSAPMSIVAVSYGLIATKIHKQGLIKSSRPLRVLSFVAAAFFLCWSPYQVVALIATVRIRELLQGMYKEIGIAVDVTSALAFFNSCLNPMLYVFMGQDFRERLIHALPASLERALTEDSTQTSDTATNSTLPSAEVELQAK
# VCAM-1 down – suppression of endothelial VCAM-1 upregulation – cell-based, plate reader, pooled HUVEC, TNFa stimulus (AID 454) | HUVEC TNFa-induced VCAM-1 surface immunofluorescence, plate reader; numbers were filed only for top-ranked candidate wells | inhibition, % at 5 µM | 10,000 tested, 0.2% active;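 active means compound among top-ranked inhibitors of TNF-induced VCAM-1 adhesion protein staining, with the hit upheld by image or statistical review; inactive means the rest, including hits rejected on review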;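 further: 0% = TNFa with vehicle and 100% = cells without TNFa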
# VCAM-1 down imaging – suppression of endothelial VCAM-1 upregulation – imaging, high-content imaging, pooled HUVEC, TNFa stimulus (AID 456); HUVEC TNFa-induced VCAM-1 surface expression, immunofluorescence imaging; numbers were filed only for top-ranked candidate wells; one-dose inhibition, % at 5 µM; IC50 in µM for titrated hits; 10,000 tested, 0.2% active;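 active means top tenth filtered wells with inhibition above zero that passed visual or statistical confirmation; inactive means the rest, including hits rejected on review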;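 further: 0% = stimulated vehicle wells and 100% = unstimulated cells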
# FPRL1 ligand – binds the human formylpeptide receptor-like-1 FPRL1; AID 441; P25090; inhibition, %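 (tested at 6.7 µM)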; FPRL1-expressing cells, fluorescent ligand binding inhibition, flow cytometry; 24,000 tested, 0.3% active;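 further: 0% = buffer alone and 100% = receptor blocker peptide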
# Target sequence (P25090 whole entry, looked up): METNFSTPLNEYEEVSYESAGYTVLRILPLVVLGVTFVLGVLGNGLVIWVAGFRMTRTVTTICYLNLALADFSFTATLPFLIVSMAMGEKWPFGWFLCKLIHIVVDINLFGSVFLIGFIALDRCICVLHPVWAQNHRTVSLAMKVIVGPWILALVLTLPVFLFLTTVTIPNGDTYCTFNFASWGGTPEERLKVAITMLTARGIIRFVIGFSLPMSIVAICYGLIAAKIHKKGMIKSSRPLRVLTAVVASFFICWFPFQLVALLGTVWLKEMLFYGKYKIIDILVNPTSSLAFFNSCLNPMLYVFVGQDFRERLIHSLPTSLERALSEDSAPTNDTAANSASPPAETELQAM
# * hit, by the source's call; i = inactive; . = no result given.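 How the source made its calls, unless noted: active means mean above 30%; inconclusive means self-fluorescent; inactive means the rest.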 This is a subset (hit frequency here may not be typical).
# Each structure is followed by: VCAM-1 up imaging	FPR ligand	VCAM-1 down	VCAM-1 down imaging	FPRL1 ligand
Cc1ccccc1Cn1cc(NC(=O)c2noc3c2CC(C(C)(C)C)CC3)cn1 (stereo unspecified)
    .	-2	.	.	-2
Cc1ccc2c(c1)N(CCCC(=O)NCc1cccnc1)C(=O)CO2
    .	-3	.	.	3
CCOC(=O)C1CCN(C(=O)c2oc3ccc(S(=O)(=O)N4CCCCCC4)cc3c2C)CC1
    .	13	.	.	-4
Cc1ccc(S(=O)(=O)NC(C(=O)OCC(=O)NC2CCS(=O)(=O)C2)C(C)C)cc1 (stereo unspecified)
    i	4	i	i	2
O=C(CCCN1C(=O)CSc2ncccc21)N1CCN(Cc2ccccc2)CC1
    .	-2	.	.	0
CCOc1ccc(C2CC(c3ccc(OC)c(OC)c3)n3nc(N)nc3N2)cc1 (stereo unspecified)
    .	0	.	.	6
CCc1cc2c(=O)c(Oc3ccccc3)c(C)oc2cc1O
    .	6	.	.	-6
FC(F)(F)c1ccc(N2CCOCC2)c(Nc2nc3ccccc3n3cnnc23)c1
    .	13	.	.	-3
COc1cccc(C(=O)Nc2ccc(C)cc2)c1
    i	-3	i	i	1
N#Cc1ccccc1CSc1nc2ncc(Br)cc2[nH]1
    .	-8	.	.	16

# Each structure is followed by: VCAM-1 up imaging	FPR ligand	VCAM-1 down	VCAM-1 down imaging	FPRL1 ligand
Cc1nnc(SCc2cc(=O)[nH]c(N3CCCCC3)n2)s1
    i	-1	i	i	0
COc1ccc(-n2c(SCC(=O)Nc3ccc(C(=O)O)cc3)nnc2-c2cccs2)cc1
    i	-5	i	i	4
COc1ccc(OC)c(S(=O)(=O)n2nnc3cc(Cl)ccc32)c1
    .	5	.	.	0
COc1ccc(NC(=O)C2(N(CC(C)C)C(=O)Cn3nnnc3N)CCCCC2)cc1
    .	0	.	.	-10
CCOC(=O)CCCOC(=O)c1ccc(S(=O)(=O)N(C)C)cc1
    i	-7	i	i	1
N#CCSc1nc2c(c(C3CC=CCC3)c1C#N)CCC2 (stereo unspecified)
    i	-4	i	i	-6
CCOC(=O)N1CCN(C(=O)c2cn(C)c3ccc(S(=O)(=O)N4CCCC4)cc3c2=O)CC1
    .	-2	.	.	1
COC(=O)c1ccccc1NS(=O)(=O)c1ccc2c3c(cccc13)C(=O)N2
    .	5	.	.	-8
O=C(Nc1ccc2c(c1)OCO2)C1CCCN(S(=O)(=O)c2cccs2)C1 (stereo unspecified)
    .	-2	.	.	-7
O=c1c2[nH]c3ccccc3c2ncn1CCCn1ccnc1
    i	2	i	i	1

# Each structure is followed by: VCAM-1 up imaging	FPR ligand	VCAM-1 down	VCAM-1 down imaging	FPRL1 ligand
O=C1NC2=C(C(=O)CCC2)C(c2ccc3ncccc3c2)N1 (stereo unspecified)
    i	7	i	i	-8
Cn1c2ccc(Cl)cc2c2nc3ccccc3nc21
    .	19	.	.	6
O=C1c2ccccc2C(Nc2ccc3c(c2)OCCO3)N1Cc1ccccc1 (stereo unspecified)
    .	-5	.	.	-6
CCC(CC)C(=O)NCCc1cc2c(OC)ccc(OC)c2[nH]c1=O
    .	2	.	.	6
CCOC(=O)C1C2C=CC3(CN(c4ccc(Cl)c(F)c4)C(=O)C13)O2 (stereo unspecified)
    .	0	.	.	-5
CCOC(=O)c1sc(NC(=O)C2CC=CCC2C(=O)O)nc1C (stereo unspecified)
    i	-2	i	i	15
COc1ccc(C)cc1NC(=O)C1CCCN(S(=O)(=O)c2c(C)noc2/C=C/N(C)C)C1 (stereo unspecified)
    .	-3	.	.	-8
COC(=O)c1c(-c2ccco2)csc1NC(=O)C1CC=CCC1C(=O)O (stereo unspecified)
    .	0	.	.	-8
CCOc1cccc2cc(-c3cn4cc(C)ccc4n3)c(=O)oc12
    .	6	.	.	1
Cc1c(C)n(C)c2ccc(C(=O)NCc3cccs3)cc12
    i	-4	i	i	-2

# Each structure is followed by: VCAM-1 up imaging	FPR ligand	VCAM-1 down	VCAM-1 down imaging	FPRL1 ligand
CC(C)c1ccc(NC(=O)C(c2ccc3c(c2)OCO3)N2CCC3(CC2)OCCO3)cc1 (stereo unspecified)
    .	10	.	.	-8
Cc1ccc(Cn2c(=O)cc(C(=O)O)c3ccccc32)cc1
    .	3	.	.	-5
COCCN1Cc2cccc(C(=O)Nc3ccc4c(c3)OCCO4)c2C1=O
    .	2	.	.	-17
N#CCSc1nnc2sc3ccccc3n12
    .	1	.	.	0
CCN(CC)C(=O)C1CC(c2ccc(OC)cc2)=NO1 (stereo unspecified)
    .	-4	.	.	0
Cc1nn(C)c(C)c1S(=O)(=O)N1CCCC(C(=O)NCC2COc3ccccc3O2)C1 (stereo unspecified)
    .	2	.	.	6
CCC1(C)Cc2c(C#N)c(N)n(N)c(=S)c2CO1 (stereo unspecified)
    i	2	i	i	-1
C=CCNC(=O)CCCCCNS(=O)(=O)c1ccc(OC)cc1
    .	-4	.	.	2
CCc1cccc(NC(=O)c2ccc(NS(=O)(=O)c3c(C)noc3C)cc2)c1
    .	0	.	.	1
CC1Cc2ccccc2N1C(=O)c1cnsn1 (stereo unspecified)
    i	8	i	i	7

# Laid out differently: 2 of the compounds above.
canonical_smiles	VCAM-1 up imaging	FPR ligand	VCAM-1 down	VCAM-1 down imaging	FPRL1 ligand
CCc1cccc(NC(=O)c2ccc(NS(=O)(=O)c3c(C)noc3C)cc2)c1	.	0	.	.	1
COCCN1Cc2cccc(C(=O)Nc3ccc4c(c3)OCCO4)c2C1=O	.	2	.	.	-17

# (next part)
# Each structure is followed by: VCAM-1 up imaging	FPR ligand	VCAM-1 down	VCAM-1 down imaging	FPRL1 ligand
COc1ccc(CCNC(=O)C2CCN(S(=O)(=O)c3cc(OC)ccc3OC)CC2)cc1
    i	1	i	i	-1
CCOc1ccc(Nc2cc(C)nc3nc(C)nn23)cc1
    .	5	.	.	6
Cc1nc2c(C(=O)NCc3ccccc3)c[nH]n2c(=O)c1Cl
    .	-6	.	.	-10
COCC(=O)NC(c1ccccc1)c1ccccc1
    i	2	i	i	2
CC(=O)c1c(C)[nH]c(C(=O)N2c3ccccc3CC2C)c1C (stereo unspecified)
    .	0	.	.	0
CCOc1ccc(NS(=O)(=O)c2ccc3[nH]cc(C(=O)NCC4CCCO4)c(=O)c3c2)cc1 (stereo unspecified)
    .	10	.	.	13
CCSc1nc(N)c(C#N)c(-c2ccccc2Cl)c1C#N
    i	-1	i	i	-18
COc1ccc(NC(=O)CCNS(=O)(=O)c2ccc3c(c2)c(=O)n(C)c(=O)n3C)cc1
    .	-2	.	.	4
Cc1ccccc1-n1c(Cn2c(=O)sc3ccccc32)nnc1SCC(=O)Nc1nccs1
    .	4	.	.	1
CCOC(=O)C1CCCN(c2c(NCCCN3CCCC(C)C3)c(=O)c2=O)C1 (stereo unspecified)
    .	-2	.	.	0

# 15 entries out of the list, sorted by count of non-hydrogen atoms, descending.
# Each structure is followed by: VCAM-1 up imaging	FPR ligand	VCAM-1 down	VCAM-1 down imaging	FPRL1 ligand
Cc1ccccc1-n1c(Cn2c(=O)sc3ccccc32)nnc1SCC(=O)Nc1nccs1
    .	4	.	.	1
COc1ccc(CCNC(=O)C2CCN(S(=O)(=O)c3cc(OC)ccc3OC)CC2)cc1
    i	1	i	i	-1
Cc1nn(C)c(C)c1S(=O)(=O)N1CCCC(C(=O)NCC2COc3ccccc3O2)C1 (stereo unspecified)
    .	2	.	.	6
CCOC(=O)C1CCCN(c2c(NCCCN3CCCC(C)C3)c(=O)c2=O)C1 (stereo unspecified)
    .	-2	.	.	0
COCCN1Cc2cccc(C(=O)Nc3ccc4c(c3)OCCO4)c2C1=O
    .	2	.	.	-17
COC(=O)c1c(-c2ccco2)csc1NC(=O)C1CC=CCC1C(=O)O (stereo unspecified)
    .	0	.	.	-8
CCOc1cccc2cc(-c3cn4cc(C)ccc4n3)c(=O)oc12
    .	6	.	.	1
C=CCNC(=O)CCCCCNS(=O)(=O)c1ccc(OC)cc1
    .	-4	.	.	2
Cc1nc2c(C(=O)NCc3ccccc3)c[nH]n2c(=O)c1Cl
    .	-6	.	.	-10
CCOc1ccc(Nc2cc(C)nc3nc(C)nn23)cc1
    .	5	.	.	6
CCN(CC)C(=O)C1CC(c2ccc(OC)cc2)=NO1 (stereo unspecified)
    .	-4	.	.	0
COCC(=O)NC(c1ccccc1)c1ccccc1
    i	2	i	i	2
CCC1(C)Cc2c(C#N)c(N)n(N)c(=S)c2CO1 (stereo unspecified)
    i	2	i	i	-1
CC1Cc2ccccc2N1C(=O)c1cnsn1 (stereo unspecified)
    i	8	i	i	7
N#CCSc1nnc2sc3ccccc3n12
    .	1	.	.	0

# (listing goes on)
# Each structure is followed by: VCAM-1 up imaging	FPR ligand	VCAM-1 down	VCAM-1 down imaging	FPRL1 ligand
CC(=O)Nc1ccc(S(=O)(=O)Nc2nc3n(n2)C(c2ccccc2)CC(=O)N3)cc1 (stereo unspecified)
    i	0	i	i	3
O=C(Cn1cnc2c(cnn2-c2ccc(F)cc2)c1=O)OCc1ccccc1
    .	40*	.	.	54*
CN(C1CCCCC1)S(=O)(=O)c1ccc(S(=O)(=O)N2CCCC2)cc1
    i	6	i	i	-4
CCOc1ccc2c(c1)sc1nc(C(=O)OC)cc(=O)n12
    i	3	i	i	-1
CCOC(=O)C1CCN(C(=O)C2CCN(S(=O)(=O)c3c(C)noc3C)CC2)CC1
    .	-2	.	.	11
O=C1CC(c2ccccc2)CC(O)=C1C=NCCCN1CCOCC1 (stereo unspecified)
    i	-5	i	i	10
O=C(CN1C(=O)CCSc2ccccc21)Nc1ccccc1
    i	1	i	i	2
COCCCn1c2nc3ccccc3nc2c2c(=O)n(-c3ccccc3OC)cnc21
    i	2	i	i	-6
CCCCn1c(SCC(=O)N2CC(=O)Nc3ccccc32)nnc1-c1ccoc1C
    i	-6	i	i	-1
COc1cccc(Oc2cn[nH]c2-c2ccc(O)cc2O)c1
    i	5	i	i	10

# Each structure is followed by: VCAM-1 up imaging	FPR ligand	VCAM-1 down	VCAM-1 down imaging	FPRL1 ligand
COc1cccc(C(CC(=O)NCCN2CCOCC2)NS(=O)(=O)c2ccc(C)cc2)c1OC (stereo unspecified)
    .	6	.	.	1
CC(=O)OCC1=C(C(=O)O)N2C(=O)[C@@H](NC(=O)Cc3cccs3)[C@H]2SC1
    i	4	i	i	-3
COc1ccccc1CNC(=O)CCCn1c(=O)c2ccccc2n(CC(=O)NC2CCCC2)c1=O
    .	2	.	.	0
O=C(C1CCCCC1)N1CCC(c2nc3c(nnn3Cc3c(F)cccc3Cl)c(=O)[nH]2)CC1
    i	2	i	i	-2
COc1ccc(-c2nc(CSCC(=O)N3CCc4ccccc43)c(C)o2)cc1OC
    .	0	.	.	2
CCOC(=O)c1[nH]c2c(c1C)C(=O)CC(c1ccc(F)cc1)C2 (stereo unspecified)
    .	8	.	.	-1
COc1ccc(C(=O)NCCCCCC(=O)O)cc1OC
    i	-5	i	i	5
O=S(NCc1ccco1)C12CC3CC(CC(C3)C1)C2 (stereo unspecified)
    i	2	i	i	6
Cn1c(=O)cc(OCC(=O)NCCCN2CCN(c3cccc(Cl)c3)CC2)c2ccccc21
    i	2	89	75%	3
CCC(=O)N1CC(C)C(=O)Nc2ccccc21 (stereo unspecified)
    .	8	.	.	3

# Each structure is followed by: VCAM-1 up imaging	FPR ligand	VCAM-1 down	VCAM-1 down imaging	FPRL1 ligand
CCOc1ccc(C2N(c3ccc(F)cc3)C(=O)C3CCCN32)cc1 (stereo unspecified)
    .	3	.	.	-3
Cc1cc(C(=O)CSCCCn2c(=O)[nH]c3ccccc32)c(C)n1C
    i	0	i	i	12
O=C(C1CC1)N1CCc2cc(S(=O)(=O)NC3CCN(Cc4ccccc4)CC3)ccc21
    .	-7	.	.	-4
COC(=O)CCC(=O)Nc1cccc(Cl)c1
    i	-2	i	i	-6
CC(=O)c1c(C)nc2nonc2c1N
    .	-2	.	.	-3
COc1cccc(-c2cc(C(=O)N3CCCCCC3)no2)c1
    i	-1	i	i	-4
